Screens (PubChem BioAssay)
Cruzain noTriton: cruzain (T. cruzi) inhibition without detergent | hit rate 2.3% among 200,000 | Potency, µM, for the others: max response, negative = inhibition, most hits filed as inhibitors | purified cruzain, Z-FR-AMC fluorescence, no detergent | P25779; active means well fitted curve in the direction sought with a large enough effect; inconclusive means small, poorly fitted or top-dose-only effect, or another doubt; inactive means no such curve, though single readings can be large; an effect the other way counts as inactive or inconclusive;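 further: plate controls were enzyme without inhibitor for no effect and buffer without enzyme for full effect; nearly all actives have a fitted effect of over 40% in size; top concentration of the series not given in the record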
Target sequence (P25779 123-467 limits assumed): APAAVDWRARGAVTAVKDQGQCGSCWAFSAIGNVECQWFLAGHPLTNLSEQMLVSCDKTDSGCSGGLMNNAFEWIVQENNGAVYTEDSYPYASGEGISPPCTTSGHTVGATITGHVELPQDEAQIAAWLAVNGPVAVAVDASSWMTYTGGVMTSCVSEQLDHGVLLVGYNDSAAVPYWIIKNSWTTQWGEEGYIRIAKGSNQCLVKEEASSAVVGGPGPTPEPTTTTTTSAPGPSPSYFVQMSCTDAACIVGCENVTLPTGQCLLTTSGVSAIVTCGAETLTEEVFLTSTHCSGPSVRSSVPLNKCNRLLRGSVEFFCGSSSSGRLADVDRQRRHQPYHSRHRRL
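Detergent-free condition (0.00005% Triton X-100) in acetate buffer pH 5.5 with DTT. 1.5 nM enzyme and compound were pre-mixed 15 min, then 2 uM Z-FR-AMC substrate added; reaction progress from fluorescence change between first and third reads (60 s).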
Cruzain Triton: inhibitors of Trypanosoma cruzi cruzain with detergent; P25779; AID 1478; hit rate 0.43% among 200,000; Potency, µM, for inactives: max response, negative = inhibition, most hits filed as inhibitors; purified cruzain, Z-FR-AMC fluorescence, 0.01% Triton; active means well fitted curve in the direction sought with a large enough effect; inconclusive means small, poorly fitted or top-dose-only effect, or another doubt; inactive means no such curve, though single readings can be large; an effect the other way counts as inactive or inconclusive;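 further: plate controls were neutral wells for no effect and buffer without enzyme for full effect; nearly all actives have a fitted effect of over 40% in size; top concentration of the series not given in the record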
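Cysteine protease activity tested under reducing, mildly acidic conditions (100 mM sodium acetate pH 5.5, 5 mM DTT) plus 0.01% Triton X-100. Cruzain 1.5 nM; substrate Z-FR-AMC 2 uM; 15 min compound preincubation at room temperature.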
MARV entry inh: inhibitors of Marburg virus binding or cell entry; Marburg virus pseudotyped entry inhibition, cell reporter; control for the full effect not named in the record; about a third of the inactives were read at about 46 µM; hit rate 1.8% among 300,000; Potency, µM (titrated, usually from 37.8 µM), inactives show at the highest dose activity change, negative = inhibition, actives largely listed as inhibitors; active = well fitted inhibition curve with a large enough effect; inconclusive = small, poorly fitted or top-dose-only effect, or effect the other way; inactive = flat fitted curve, though single readings scatter; tested in HEK293 cells; about a fifth of its hits are not listed in these tables; further: on the % scale 0 is the no-effect control and ±100 the full control effect; luciferase read-out
SARS PLP yeast: blocks SARS-CoV papain-like protease in a yeast assay | S. cerevisiae expressing SARS-CoV PLpro, growth rescue; control for the full effect not named in the record | hit rate 0.19% among 330,000 | AID 485353 | Potency, µM (top dose mostly 32.9 µM), without a hit: top-dose activity, positive = growth rescue; further: 0% is about no effect; nearly all actives have a fitted effect of over 55% in size; growth read by luminescence after 48 h
Lassa entry inh: Lassa virus entry inhibition; Potency, µM (top dose mostly 37.9 µM), inactives show top-dose activity change, negative = inhibition, actives largely listed as inhibitors; hit rate 1.2% among 300,000; Lassa virus pseudotype entry inhibition, cell reporter; control for the full effect not named in the record; active means well fitted inhibition curve with a large enough effect; inconclusive means small, poorly fitted or top-dose-only effect, or effect the other way; inactive means flat fitted curve, though single readings scatter; tested in HEK293 cells; further: on the % scale 0 is the no-effect control and ±100 the full control effect; nearly all actives have a fitted effect of over 50% in size; luciferase read-out
NS1 inh: blocks influenza NS1 protein function; S. cerevisiae slowed by influenza A NS1, growth recovery by OD600; Potency, µM (series often up to 46.1 µM), inactives show at the top dose activity, positive = more growth; hit rate 0.4% among 270,000; further: actives are rising curves; nearly all actives have a fitted effect of over 50% in size
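Recovery from NS1-induced slow growth read by OD600 in budding yeast switched to galactose assay medium (pH 6.0, -URA) at 1:100 dilution. Compound 23 nl per well; the matching strain lacking NS1 serves as control.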
StopGo reporter: lowers the luciferase signal of an FMDV 2A StopGo reporter. human cells with a luciferase reporter of 2A StopGo recoding; control for the full effect not named in the record. Potency, µM (series often up to 57.9 µM), for the others: top-dose signal change, negative = less light. hit rate 1.2% among 410,000; active = well fitted falling curve with a large enough effect; inconclusive = small, poorly fitted or top-dose-only effect; inactive = no such curve, though single readings can be large or run the other way; tested in HEK293T cells; further: on the % scale 0 is the no-effect control and ±100 the full control effect; nearly all actives have a fitted effect of over 45% in size; luciferase light after 4 h
RE007 growth inh: less growth of the S. pombe RE007 Vpr strain; hit rate 0.21% among 360,000; AID 651644; S. pombe RE007 Vpr strain, BacTiter-Glo ATP luminescence, 24 h; control for the full effect not named in the record; Potency, µM (top dose mostly 92.2 µM), for inactives: top-dose activity change, negative = less growth; active = well fitted falling curve with a large enough effect; inconclusive = small, poorly fitted or top-dose-only effect; inactive = no such curve, though single readings can be large or run the other way;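 further: on the % scale 0 is the no-effect control and ±100 the full control effect; nearly all actives have a fitted effect of over 50% in size; the assay follows cell death caused by Vpr and the record does not say whether a fall means rescue or toxicity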
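Fission yeast strain RE007, carrying one chromosomally integrated HIV-1 vpr copy, was seeded at OD 0.01 in PMG+AL medium with 23 nL pinned compound. After 24 h at 30 °C and 99% humidity, viability was read by BacTiter-Glo luminescence.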
Starred values were filed as active, the others as inactive; ? = inconclusive; · = no result given; & = joins results of further samples; [ ] = dose if it differs, or a comment. Unless noted, the call rests on the fitted dose curve; in most records, active means well fitted rising curve with a large enough effect; inconclusive means small, poorly fitted or top-dose-only effect; inactive means no such curve, though single readings can be large or run the other way. Potency means the concentration at half of the fitted maximal effect.

Value order: Cruzain noTriton	Cruzain Triton	MARV entry inh	SARS PLP yeast	Lassa entry inh	NS1 inh	StopGo reporter	RE007 growth inh
> O=C(NC1CCCC1)c1ccc(CS(=O)(=O)Cc2ccccc2F)o1
 : ·	·	·	3%	·	-16%	2%	5%
> COc1ccc(NC(=O)C(c2cc3c(cc2[N+](=O)[O-])OCO3)N(C)C)cc1 (stereo not drawn)
 : 3%	-3.9%	7%	-16%	?	-3%	6%	-5%
> COc1ccccc1-n1cnc2cc(C(=O)NC3CCCC3)ccc21
 : 20%	-4.8%	16%	19%	6%	-2%	20%	5%
> CC(C)C[C@H](NC(=O)[C@@H]1Cc2c([nH]c3ccccc23)C2c3ccccc3C(=O)N21)C(=O)NCC1CCCO1 (stereo partly drawn)
 : ·	·	·	5%	·	-9%	-24%	-2%
> O=C(N/N=C/c1ccc(O)cc1)c1cc(-c2ccccc2)nc2ccccc12
 : ·	·	·	1%	·	-2%	17%	16%
> CCOCCn1c(=NC(=O)c2cc(Cl)sc2Cl)sc2cc(S(N)(=O)=O)ccc21
 : 5%	-2.5%	-5%	-9%	2%	-2%	·	·
> Cc1ccc(Sc2c(C)nn(C(C)(C)C)c2OC(=O)C(C)(C)C)cc1
 : 2%	-7.5%	-6%[46.1 µM]	·	9%[46.1 µM]	·	0%	·
> COc1ccc(S(=O)(=O)N(CC(=O)NCc2ccccn2)c2ccc(Cl)cc2)cc1
 : ·	·	1%[46.1 µM]	0%	-18%	-2%	9%	7%
> Cc1cccc(N2CCN(c3ccc(NC(=O)c4ccccc4)cc3C(=O)O)CC2C)c1 (stereo not drawn)
 : -13%	2.2%	·	·	1%[46.1 µM]	·	-17%	·
> CC(=O)c1ccc(OCC(=O)NC2CCS(=O)(=O)C2)cc1 (stereo not drawn)
 : 1%	1.4%	-12%	1%	?	-3%	·	8%
> COc1ccc(NC(=O)CCCN(C)S(=O)(=O)c2ccc(C)cc2)cc1
 : -3%	-0.4%	?	-6%	?	-4%	0%	2%
> CCc1ccc(CNC(=O)Cn2ccc3cc(S(=O)(=O)N4CCCCCC4)ccc32)cc1
 : -10%	-3.6%	·	·	-14%[46.1 µM]	·	-12%	·
> CC1CCCN(C(=O)C2c3ccccc3C(=O)N3CCc4ccccc4C23)C1 (stereo not drawn)
 : -2%	-3.9%	15%	-2%	-7%	-2%	-12%	-4%
> Cc1ccc(-c2noc(CN3CCOCC3)n2)cc1
 : -5%	-0.5%	-7%	8%	?	2%	50%[activator]	5%
> CC(C)(C)c1ccc(-c2nnc(SCC(=O)O)n2N)cc1
 : 3%	0.0%	12%	3%	0%	-3%	7%	4%
> Cc1cc(OCCCn2cnc3ccccc3c2=O)ccc1[N+](=O)[O-]
 : 22%	-3.4%	7%	-10%	10%	-11%	10%	-5%
> COc1ccccc1CNc1cc(-c2ccccc2)nc2nncn12
 : -22%	-6.4%	?	·	-5%[46.1 µM]	·	-16%	·
> CC(C)Oc1ccc(C(CC(=O)O)NC(=O)CSc2ncn[nH]2)cc1 (stereo not drawn)
 : 2%	9.0%	9%	4%	2%	11%	17%	-8%
> CCc1ccc(S(=O)(=O)c2cn(CC(=O)Nc3ccc(F)c(Cl)c3)c3ccccc3c2=O)cc1
 : -27%	-4.9%	2%[46.1 µM]	·	3%[46.1 µM]	·	7%	·
> COCCCNC(=O)CN(c1cc(Cl)ccc1OC)S(C)(=O)=O
 : ·	·	-2%[46.1 µM]	0%	-11%	5%	-7%	-7%

Just SARS PLP yeast and MARV entry inh, for 3 of the compounds above:
Compound	SARS PLP yeast	MARV entry inh
O=C(N/N=C/c1ccc(O)cc1)c1cc(-c2ccccc2)nc2ccccc12	1%	·
CCOCCn1c(=NC(=O)c2cc(Cl)sc2Cl)sc2cc(S(N)(=O)=O)ccc21	-9%	-5%
Cc1ccc(Sc2c(C)nn(C(C)(C)C)c2OC(=O)C(C)(C)C)cc1	·	-6%[46.1 µM]

Continued:
Value order: Cruzain noTriton	Cruzain Triton	MARV entry inh	SARS PLP yeast	Lassa entry inh	NS1 inh	StopGo reporter	RE007 growth inh
> CCOC(=O)c1c(C)n(C)c2ccc(O)c(CN3CCCCC3)c12
 : -7%	-2.5%	?	-2%	-3%	-6%	-24%	3%
> O=S(=O)(c1ccc(Cl)cc1)n1cccn1
 : ·	·	?	1%	-12%	2%	-4%	3%
> CNC(=O)CC1C(=O)N(C)C(=S)N1NC(=O)c1ccccc1 (stereo not drawn)
 : ·	·	1%	2%	7%	5%	9%	4%
> COc1ccccc1Nc1sc(C(=O)c2ccc(F)cc2)c(N)c1S(=O)(=O)c1ccc(C)cc1
 : 7.9µM*	-2.3%	·	·	?	·	-28%	·
> O=C(CCc1ccccc1)Nc1ccc(NS(=O)(=O)c2ccccc2)cc1
 : ·	·	·	0%	·	-1%	-11%	1%
> O=C(CCc1ccccc1)NNC(=O)c1ccco1
 : -3%	4.1%	-10%	4%	13%	6%	23%	9%
> CC1=C(C(=O)OC(C)C)C(C)NC(=O)N1 (stereo not drawn)
 : 2%	1.1%	1%	-1%	2%	0%	-2%	-17%
> CCOCc1nnc(NC(=O)c2ccco2)s1
 : -1%	3.0%	-16%	-3%	14%	?	24%	-8%
> CCCCCOC(=O)NCCOC(=O)Nc1ccc(C(=O)OCC)cc1
 : 10%	-1.2%	11%	3%	1µM*	-5%	?	-6%
> CN(C)c1ccc(-c2nnn(CC(=O)NCc3ccc4c(c3)OCO4)n2)cc1
 : ·	·	?	0%	-7%[46.1 µM]	·	52%[activator]	1%
> Cc1nn(Cc2noc(C(=O)NCC3CCCO3)n2)c(C)c1Br (stereo not drawn)
 : ·	·	·	0%	·	-2%	-3%	-3%
> CCN1CCN(c2cc(C)c3cc(NC(=O)c4ccc5c(c4)OCO5)ccc3n2)CC1
 : -1%	-2.9%	-32%	26%	2%	-9%	-4%	2%
> CC(C)(C)c1ccc(C(=O)N2CCC(C(=O)NCCC3=CCCCC3)CC2)cc1
 : ?	-4.3%	-15%	0%	-2%	8%	-3%	18%
> Cc1cc(C(=O)OCC(=O)N(CC(C)C)c2c(N)n(Cc3ccccc3)c(=O)[nH]c2=O)c(C)o1
 : ·	·	-8%	-3%	?	·	-14%	0%
> CCCNc1c(NS(=O)(=O)c2cccs2)c(=O)oc2ccccc12
 : ·	·	·	0%	·	1%	-2%	2%
> Clc1ccc(CSC2=NCCCN2)cc1Cl
 : -8%	3.4%	?	-3%	9%	-6%	-22%	-11%
> CC(=O)C1CCC2C3CC(C)C4(O)CC(=O)CCC4(C)C3C(O)CC12C (stereo not drawn)
 : ·	·	11%	·	5%	·	-17%	3%
> COc1ccc(CCC(=O)NCc2ccc3c(c2)CCN3C(=O)c2ccc(C)cc2)cc1
 : 8%	-0.9%	·	·	-7%[46.1 µM]	·	12%	·
> CCc1ccc(CNC(=O)c2ccc(-c3nc(CS(=O)(=O)c4ccccc4)c(C)o3)cc2)cc1
 : -4%	-4.0%	·	·	1%[46.1 µM]	·	-21%	·
> CCc1ccc(NS(=O)(=O)c2cc3c(cc2C)n(C)c(=O)c(=O)n3C)cc1
 : ·	·	·	-2%	·	13%	-21%	10%

6 of the compounds above, bar-delimited.
SMILES | Cruzain noTriton | Cruzain Triton | MARV entry inh | SARS PLP yeast | Lassa entry inh | NS1 inh | StopGo reporter | RE007 growth inh
CCOC(=O)c1c(C)n(C)c2ccc(O)c(CN3CCCCC3)c12 | -7% | -2.5% | ? | -2% | -3% | -6% | -24% | 3%
O=S(=O)(c1ccc(Cl)cc1)n1cccn1 | · | · | ? | 1% | -12% | 2% | -4% | 3%
CNC(=O)CC1C(=O)N(C)C(=S)N1NC(=O)c1ccccc1 (stereo not drawn) | · | · | 1% | 2% | 7% | 5% | 9% | 4%
COc1ccccc1Nc1sc(C(=O)c2ccc(F)cc2)c(N)c1S(=O)(=O)c1ccc(C)cc1 | 7.9µM* | -2.3% | · | · | ? | · | -28% | ·
O=C(CCc1ccccc1)Nc1ccc(NS(=O)(=O)c2ccccc2)cc1 | · | · | · | 0% | · | -1% | -11% | 1%
O=C(CCc1ccccc1)NNC(=O)c1ccco1 | -3% | 4.1% | -10% | 4% | 13% | 6% | 23% | 9%

Later entries
Value order: Cruzain noTriton	Cruzain Triton	MARV entry inh	SARS PLP yeast	Lassa entry inh	NS1 inh	StopGo reporter	RE007 growth inh
> O=C(O)C(Nc1nc(C(F)(F)F)nc2ccccc12)c1ccccc1 (stereo not drawn)
 : ·	·	·	-3%	·	8%	-22%	13%
> COc1cccc(CNC(=O)CN(C)S(=O)(=O)c2ccc3c(c2)c(=O)n(C)c(=O)n3C)c1
 : -15%	1.0%	7%[46.1 µM]	3.5µM*	-3%[46.1 µM]	-14%	0%&0%	-6%
> O=C(CCn1c(=O)sc2ccccc21)NCCCn1ccnc1
 : 1%	-0.2%	11%	4%	-8%	-8%	·	-17%
> O=C1Nc2c(Cl)cc(Cl)cc2C1=O
 : ·	·	?	·	-4%[46.1 µM]	·	-20%	-2%
> COc1ccc2nc(Cl)cc(Cl)c2c1
 : ·	·	9%[46.1 µM]	-5%	1%[46.1 µM]	-5%	17%	-12%
> CCOc1ccc(CN(C)C(=O)c2ccc3ccccc3n2)cc1
 : ·	·	2%[46.1 µM]	14%	-24%	-16%	29%	16%
> C=C(C)CSc1nnc2n(N)c(=O)c3ccccc3n12
 : -3%	2.5%	-6%	4%	6%	-2%	7%	15%[3.69 µM]
> COCCCNc1oc(-c2ccccc2Cl)nc1C#N
 : ·	·	·	0%	·	-10%	22%	7%
